# HSD17B inhib – blocks hydroxysteroid 17-beta dehydrogenase activity; Q99714; recombinant HSD17B10, NADH fluorescence kinetic; many of its hits are not listed in these tables; Potency, µM (doses to about 57.1 µM), for inactives: at the highest dose activity change, negative = inhibition, most hits filed as inhibitors; 7.6% of 75,000 active; active = well fitted inhibition curve with a large enough effect; inconclusive = small, poorly fitted or top-dose-only effect; inactive = no such curve, though single readings can be large or run the other way;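 note: the protocol describes HADH2 (HSD17B10) and not the HSD17B4 of the title; nearly all actives have a fitted effect of over 70% in size; most hits overshoot -100% by far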
#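 His-tagged E. coli-expressed HADH2 at 20 nM in 100 mM Tris-HCl pH 9.0 with 0.01 % Tween-20, preincubated 15 min with compound at room temperature. Reaction with 1 mM NAD+ and 90 uM beta-hydroxybutyryl coenzyme A; NADH fluorescence (360/450 nm) read kinetically over 4 min, last minus first point.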
# An asterisk follows results filed as active; ? = inconclusive; [ ] = remark or other dose. % is set by controls: 0 for no effect and ±100 for the full control effect; potency is the fitted concentration of half-maximal effect.
smiles,HSD17B inhib
CCOC(=O)N1CCN(C(=O)c2ccc(-n3c(=S)[nH]c4ccccc4c3=O)cc2)CC1,-0.4%
Cn1cnnc1SCCn1c(N2CCCCC2)nc2c1c(=O)[nH]c(=O)n2C,-0.7%
COC(=O)c1cccc(C23CC4(C2)[C@H](CN(Cc2ccc(C(F)(F)F)cc2)[C@@H]4c2ccccc2)C3c2ccc(Cl)nc2)c1 (stereo partly drawn),-3.5%
COc1cc(-c2cc(C(=O)O)c3c(OC)c(OC)c(OC)cc3n2)ccc1O,?
Nn1c(COc2cccc(Br)c2)nnc1SCC(=O)N1CCc2ccccc2C1,-9.7%
Cc1cccc(OCC(=O)Nc2ccc3c(c2)nc(CCN2CCN(C)CC2)n3C)c1,1.4%
CC(=O)c1cccc(NC(=O)NC2CCCCC2)c1,-8.6%
CSCC[C@H](NC(=O)OC(C)(C)C)c1nnc(SCC(=O)N(C)C)o1,7.5%
Cc1nn(-c2nnc(C)c(=O)[nH]2)c(C)c1SCC(=O)Nc1ccc(F)cc1,-2.3%
Cc1ccc(-n2c(SCc3ccc(C#N)cc3)nnc2-c2ccccn2)cc1,-3.1%

# (continued)
smiles,HSD17B inhib
COc1ccc(CC(NC(C)=O)C(=O)NC2CCN(c3nnnn3-c3ccccc3)CC2)cc1 (stereo not drawn),8.3%
O=C(Nn1cnnc1)c1cc2c(s1)CCCC2,-21.2%
COCC(=O)N(CCc1ccc(OC)cc1)Cc1nc2ccccc2c(=O)[nH]1,0.4%
CCOC(=O)CN1C(=O)C(O)(C2CCc3ccccc3C2=O)c2ccccc21 (stereo not drawn),3.9%
O=C(CSc1nnnn1-c1ccccc1)Nc1ccc(N2CCOCC2)c(Cl)c1,1.6%
CC1CN(c2ncnc3c2oc2ccccc23)CC(C)O1 (stereo not drawn),?
Cc1cc(C(=O)O)sc1C(N)C(=O)O (stereo not drawn),5.0%
O=C(c1csnn1)N1CCC2(CC1)CCN(c1ccccn1)CC2,25.1µM*
CC(=O)Nc1ccc(S(=O)(=O)N2CCC(N(C)CCC(C)C)CC2)cc1,0.1%
C[C@@H](N=C(N)N)C(=O)O,9.4%[11.4 µM]

# Next section:
smiles,HSD17B inhib
Cc1nn(-c2ccc(Cl)cc2)c2sc(C(=O)N3CCN(c4ccccn4)CC3)cc12,1.5%
CC(C)NC(=O)CCCn1c(=S)[nH]c2cc3c(cc2c1=O)OCO3,6.7%
NC/C(=N\O)c1ccc(Cl)cc1Cl,0.6%
O=C(O)c1cc(C(=O)C(=O)c2cc(C(=O)O)c(O)c3ccccc23)c2ccccc2c1O,?
CCn1c(SCC(=O)N2CCN(S(=O)(=O)c3ccccc3)CC2)nnc1-c1cccs1,-11.3%
COc1ccccc1NC(=O)CCc1c(C)[nH]c(=O)c(C#N)c1C,-19.8%
CN(C)CCCn1c2ccccc2c2cnccc21,7.2%[11.4 µM]
CCn1c(=O)cc(OCC(=O)NCc2cccnc2)c2ccccc21,-4.0%
COc1cccc(-n2c(C)nc3c(cnn3-c3ccc(C)cc3)c2=O)c1,-3.4%
NCc1nnn(Cc2ccccc2)c1N,11.2%[11.4 µM]

# Next structures follow:
smiles,HSD17B inhib
COc1ccc(-c2nnc(SCC(=O)Nc3ncc(C)s3)n2-c2ccccc2)cc1OC,-8.2%
O=C(CCCC1=NS(=O)(=O)c2ccccc2N1)N1CCN(c2ccc(Cl)cc2)CC1,-8.3%
COC(=O)c1cccc(NC(=O)CSc2nc(=O)cc(N)n2-c2ccccc2)c1,-15.9%
O=C(Cn1ncc2c1-c1ccccc1OC2)N1CCN(Cc2ccc3c(c2)OCO3)CC1,0.2%
CCOc1ccccc1NC(=O)N1CCC(c2nc3ccc(C)cc3[nH]2)CC1,1.1%
CCCN1CCN(C(c2cc3cc(OCC)ccc3[nH]c2=O)c2nnnn2C2CCCCC2)CC1 (stereo not drawn),25.1µM*
Cc1nnc(SCCn2c(N3CCN(c4ccccc4)CC3)nc3c2c(=O)n(C)c(=O)n3C)s1,12.6µM*
CCC(=O)Nc1sccc1C(=O)OC,3.0%
Brc1ccc(CSc2nnc(-c3cnccn3)n2Cc2ccco2)cc1,-13.4%
CC(Oc1ccc(-c2ccccc2)cc1)C(=O)N1CCOCC1 (stereo not drawn),-8.7%

# Some of these compounds in order of number of heavy atoms, smallest number first.
smiles,HSD17B inhib
CCC(=O)Nc1sccc1C(=O)OC,3.0%
Cc1nnc(SCCn2c(N3CCN(c4ccccc4)CC3)nc3c2c(=O)n(C)c(=O)n3C)s1,12.6µM*
CCCN1CCN(C(c2cc3cc(OCC)ccc3[nH]c2=O)c2nnnn2C2CCCCC2)CC1 (stereo not drawn),25.1µM*

# (next part)
smiles,HSD17B inhib
COC(=O)c1[nH]c2cccc(C)c2c1NC(=O)CN1CCN(C(=O)c2ccco2)CC1,?
Cc1ccc(OCC(=O)Nc2ccc(N(C)C)cc2)cc1,1.1%
COC(=O)c1ccc(C23CC4(C2)[C@H](CN(C)[C@@H]4c2ccccc2)C3c2ccc(C(F)(F)F)cc2)cc1 (stereo partly drawn),-6.3%
O=C1CCCc2c1cc(C(=O)NCCCN1CCOCC1)c(=O)n2-c1ccc(Cl)cc1,?
O=C(CSc1ncc(-c2ccccc2)nn1)NCc1ccco1,-14.9%
COC(=O)[C@H](C)NC(=O)Nc1ccc(OC)cc1OC,3.9%
Cc1cccc(Cn2cnc3c(nnn3Cc3ccc(F)cc3)c2=O)c1,-2.3%
CN1CCN(C(=O)CC23CC4CC(CC(C4)C2)C3)CC1,-3.3%
CCOC(=O)c1[nH]c(C)c(C(=O)NC(C)CC)c1C (stereo not drawn),-0.1%
CCC1(CC)NC(=O)NC1=O,9.3%

# Additional records:
smiles,HSD17B inhib
CCOC(=O)Cn1cnc2c(nnn2Cc2ccc(Cl)cc2)c1=O,-1.0%
CC(C)(C)n1nnnc1CN1CCN(C2CCCC2)CC1,0.3%
Cn1c(C(=O)N2CCN(Cc3ccc4c(c3)OCO4)CC2)cc2c(=O)n(C)c3ccccc3c21,?
CN(C)c1ccnc(NCc2ccccc2)c1C#N,-9.2%
O=C(CCN1C(=O)c2ccccc2C1=O)Nc1ccc(F)cc1,6.5%
COC(=O)Nc1sc2c(c1C(=O)NCc1ccco1)CCCC2,-10.5%
CCCCN(CC)CCCNC(=O)Cn1nc(Cc2ccncc2)c2ccccc2c1=O,2.0%
c1ccc(C(c2ccccc2)N2CCCC3(CCNCC3)C2)cc1,-7.7%
Cc1nc(Nc2nc3ccccc3o2)nc2c1CCC2,10.4%
Cc1oc(-c2ccc(Cl)cc2)nc1CN1CCCC(C(=O)NCCCN2CCOCC2)C1 (stereo not drawn),3.0%

# Following part:
smiles,HSD17B inhib
CCOC(=O)c1ccc(NC(=O)Cn2nnc(-c3ccc(C)cc3)n2)cc1,3.3%
COC(=O)c1ccccc1N=C(SC)N(C)C,?
CCCN1C(=O)c2ccc(C(=O)Nc3nccs3)cc2C1=O,4.5%
COc1ccc(C(=O)CSc2n[nH]c(-c3ccco3)n2)cc1,-2.0%
Cc1ccc2nc(NCCCNC(=O)c3cnccn3)c(C#N)cc2c1,-4.8%
N#CCCn1c(=O)c(-c2ccc(Cl)cc2)nc2cnc(Oc3ccccc3)nc21,?
Cc1ccc(S(=O)(=O)N2CCC(C(=O)Nc3nnc(C4CCCC4)s3)CC2)cc1,-1.2%
Cn1c(=O)oc2cc(S(=O)(=O)N3CCC(C(=O)NCC4COc5ccccc5O4)CC3)ccc21 (stereo not drawn),9.1%
CCN(CC)C(=O)C1CC(=O)OC1(C)C (stereo not drawn),-1.0%
O=C1CCCC2=C1C(c1c(Cl)nc3sccn13)C1=C(CCCC1=O)N2,-1.1%

# Next section.
smiles,HSD17B inhib
O=C(NC1CCCC1)C(c1cccs1)N(Cc1ccco1)C(=O)c1csnn1 (stereo not drawn),-0.9%
CCCCOCCOCCOCCCC,6.3%
NC(Cc1cc(I)c(Oc2cc(I)c(O)c(I)c2)c(I)c1)C(=O)O (stereo not drawn),10µM*
O=C(Nc1ccccc1)[C@@]12C[C@@H]1/C(=N/O)c1ccccc1O2,12.3%
O=C(CSCc1ccccc1)N1CCN(c2ccc(F)cc2)CC1,-5.1%
O=C(C1CCC1)N1CCc2cc(S(=O)(=O)Nc3ccc4c(c3)OCCO4)ccc21,-0.9%
CC(=O)Nc1nc2c(c3c1c(=O)oc1ccccc13)CC(C)CC2 (stereo not drawn),-2.0%
O=C(CSc1nc2nc[nH]c2c(=O)[nH]1)NC1CCCCC1,1.2%
Cc1cc(NC(=O)c2ccc(NC(=O)C(C)Oc3ccccc3)cc2)no1 (stereo not drawn),6.8%
CN(CCNC(=O)C1CC(=O)N(C2CCCC2)C1)Cc1ccccc1 (stereo not drawn),2.1%

# Next entries.
smiles,HSD17B inhib
COc1cccc(N=C2SC(C(=O)Nc3ccccc3F)CC(=O)N2C)c1 (stereo not drawn),4.2%
CC(C)C(OC(=O)CN1C(=O)COc2ccccc21)C(=O)NC1CCCC1 (stereo not drawn),4.7%
CCn1ccc(C(=O)Nc2ccc(Cl)cn2)n1,4.3%
O=C(COc1ccc(S(=O)(=O)N2CCOCC2)cc1)Nc1ccc(Cl)c(C(F)(F)F)c1,-7.2%
CC1=C(C(=O)OCc2ccccc2)C(c2ccc(C)o2)C2=C(CCCC2=O)N1 (stereo not drawn),-8.6%
O=C(c1ccccc1F)N1CCc2ccccc21,2.8%
Cc1cccc2cc(C(c3nnnn3CC3CCCO3)N3CCc4ccccc4C3)c(=O)[nH]c12 (stereo not drawn),5.1%
O=C(OCc1ccccc1)C1CCCN1C(=O)c1cccs1 (stereo not drawn),2.9%
CCN(CC)CCOC(=O)c1c(C)oc2ccc(O)cc12,2.7%
CNc1oc(Cc2ccccc2)nc1S(=O)(=O)c1ccc(Cl)cc1,9.6%

# Following part
smiles,HSD17B inhib
CCN1C(=O)N(CC)C(O)(c2ccccc2)C1(O)c1ccccc1 (stereo not drawn),8.6%
CC(OC(=O)c1ccncc1)C(=O)Nc1cccc(Cl)c1 (stereo not drawn),9.7%
CC1CCC2CC1C2(C)C (stereo not drawn),-2.3%
CCOc1ccccc1OCCn1nnc2ccccc21,0.3%
CCOC(=O)C(/C(N)=N/C(=O)Nc1ccccc1)=C(\C)O,0.5%
CCN1CCN(C(=O)c2cn(CC)c3ccc(S(=O)(=O)N(C)C)cc3c2=O)CC1,0.9%
COc1ccc(OC)c(C2C3=C(CCCC3=O)Nc3nc4ccccc4n32)c1 (stereo not drawn),-19.1%
COP(=O)(/C=C/c1ccccc1)C(O)c1ccc(F)cc1 (stereo not drawn),10.3%
Cc1cc(N2C(=O)C(O)=C(C(=O)c3ccc(C)o3)C2c2cccs2)no1 (stereo not drawn),-23.3%
O=C(CN1CCCC1)Nc1ccc(-c2nc3cc(NC(=O)CN4CCCC4)ccc3o2)cc1,25.1µM*

# Next section:
smiles,HSD17B inhib
O=C(O)CSc1nnc(-c2ccco2)o1,0.9%
Cc1ccccc1NS(=O)(=O)c1ccc(OCC(=O)NCc2ccco2)cc1,-27.2%
COc1ccc(NC(=O)N2CC3(CCN(C(=O)c4ccncc4)CC3)C2)cc1,-1.7%
CCOc1cc(C2C(C#N)=C(N)OC(C)=C2C(C)=O)cc(Br)c1O (stereo not drawn),?
CNC(=O)CSCc1c(Cl)cccc1Cl,0.8%
Brc1cc(Br)c(Oc2cc(Br)c(Br)cc2Br)cc1Br,-9.1%
Cc1ccc(N=Nc2c(O)c(S(=O)(=O)O)cc3cc(S(=O)(=O)O)ccc23)c(C)c1,-2.3%[11.4 µM]
COc1ccccc1C(=O)N1CCN(c2ccccn2)CC1,?
CCOC(=O)c1ccc(NC(=O)c2ccc(CN3CCOCC3)cc2)cc1,7.1%
O=C(CSCc1c(F)cccc1Cl)NCc1ccco1,5.8%

# More results
smiles,HSD17B inhib
CCc1ccccc1NC(=O)CSC1=C(C#N)C(c2ccc3c(c2)OCO3)C2=C(CCCC2=O)N1 (stereo not drawn),1.2%
CCCCCOc1ccc(/C=c2\sc3ncnn3c2=O)cc1,13.8%
O=S(=O)(CCOc1ccccc1)c1nc2ccccc2[nH]1,5.1%
C=CCn1c(N)c(C(=O)NCc2cccnc2)sc1=S,-22.7%
CNc1nc(Oc2ccccc2C(=O)OC)nc(SC)n1,7.0%
O=C(Nc1ccc(CN2CCOCC2)cc1)c1cc2ccccn2n1,7.6%
CCOc1ccc(Cl)cc1S(=O)(=O)n1nnc2ccccc21,-11.8%
Cc1nnc(SCC(=O)Nc2ccc(N3CCOCC3)cc2)o1,9.8%
O=C(NC1CCCCCC1)C1c2ccccc2C(=O)N1C1CC1 (stereo not drawn),10.3%
CC(C)[C@H](NC(=O)Nc1ccc(S(N)(=O)=O)cc1)C(=O)O,3.3%

# New compounds follow.
smiles,HSD17B inhib
N#Cc1c2n(c(=O)[nH]c1=O)CCCCC2,3.1%
O=S(=O)(c1cccc(C(F)(F)F)c1)N1CCN(c2nnnn2-c2ccccc2)CC1,5.9%
O=C(CNS(=O)(=O)c1ccccc1)N1CCN(c2ccccc2)CC1,0.2%
CN1CCN(c2ncncc2-c2ccccc2C(F)(F)F)CC1,5.5%
O=S(=O)(c1ccc2nc(COc3ccc(Cl)cc3Cl)[nH]c2c1)N1CCOCC1,8.9%
CC(C)=C1C2C=CC1C(C(=O)Nc1cccc(C)c1)C2C(=O)O (stereo not drawn),7.2%
CC(C)C(c1nnnn1Cc1ccccc1)N1CCN(Cc2ccco2)CC1 (stereo not drawn),-25.1%
Cc1ccccc1-c1nc(CN2CCC(C(=O)O)CC2)c(C)o1,-3.4%

# Bioassay records deposited in PubChem BioAssay by National Center for Advancing Translational Sciences (NCATS).

# Some of the compounds tested; the hit share may differ from the screen's.
